Six1-Eya2 blk: qHTS Assay for Inhibitors of the Six1/Eya2 Interaction; Homeobox protein SIX1 (Homo sapiens) + Protein phosphatase EYA2 (Homo sapiens), …; AlphaScreen GST-Six1/His-Eya2 binding, biochemical; hits give low values; control for the full effect not named in the record; activity change, % (concentration not given with the values); 360,000 tested, 0.56% active; AID 651725, 2012; in the data active = activity change below about -65%; inconclusive = about -30% to -65%; inactive = above about -30%; further: on the % scale 0 is the no-effect control and ±100 the full control effect
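GST-Six1 + His-Eya2 (5X stock: 250/500 nM); Tris pH 8.0, 300 mM NaCl, 0.05% BSA, 0.02% Tween 20; GSH donor/Ni acceptor beads; 1 h 37 °C dark; AlphaScreen readout.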
D2 ag: Beta-Arrestin HTS for Positive Allosteric Modulators of the Human D2 Dopamine Receptor: Agonists; D(2) dopamine receptor (Homo sapiens), P14416; DiscoveRx PathHunter D2 beta-arrestin, luminescence, 90 min; 100% = 57 uM dopamine signal; activation, % (test concentration not listed); 360,000 tested, 0.084% active; in the data active = activation above about 40%; inconclusive = about 15% to 40%; inactive = below about 15%; further: compound concentration not given in the record; the text of the record calls up to 30% inactive
Target sequence (P14416 whole entry, looked up): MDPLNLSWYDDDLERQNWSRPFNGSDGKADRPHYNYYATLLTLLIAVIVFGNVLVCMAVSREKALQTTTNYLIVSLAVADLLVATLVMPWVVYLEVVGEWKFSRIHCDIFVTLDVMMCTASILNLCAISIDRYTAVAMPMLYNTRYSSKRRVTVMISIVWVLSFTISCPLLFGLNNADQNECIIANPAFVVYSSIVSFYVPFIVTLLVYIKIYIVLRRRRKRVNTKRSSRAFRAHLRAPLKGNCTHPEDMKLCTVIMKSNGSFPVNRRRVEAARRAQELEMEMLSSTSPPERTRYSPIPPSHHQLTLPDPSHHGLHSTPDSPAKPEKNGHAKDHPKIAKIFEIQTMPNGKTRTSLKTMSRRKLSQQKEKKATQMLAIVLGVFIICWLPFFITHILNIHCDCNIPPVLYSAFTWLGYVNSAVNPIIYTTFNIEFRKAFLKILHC
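DiscoveRx PathHunter D2 beta-arrestin cells (2,100/well) attached overnight, then compound-stimulated 90 min at 37 C in HBSS/10 mM HEPES/0.1% Tween-20 buffer; beta-galactosidase complementation read by luminescence after 1 h at ambient temperature. Dopamine 57 uM final (EC100) as control.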
TRPML1 ag: qHTS for Agonists of the Human Mucolipin Transient Receptor Potential 1 (TRPML1). TRPML1-expressing cells, Ca2+ dye fluorescence, FDSS; host cell line not named in the record; reference of the full effect not given here. activation, % (test concentration not listed). 410,000 tested, 0.12% active. AID 624414, 2012; in the data active = activation above about 50%; inconclusive = about 30% to 50%; inactive = below about 30%; further: 0% is about no effect; the text of the record puts the active cut at 80%
Target sequence (Q9GZU1 whole entry, looked up): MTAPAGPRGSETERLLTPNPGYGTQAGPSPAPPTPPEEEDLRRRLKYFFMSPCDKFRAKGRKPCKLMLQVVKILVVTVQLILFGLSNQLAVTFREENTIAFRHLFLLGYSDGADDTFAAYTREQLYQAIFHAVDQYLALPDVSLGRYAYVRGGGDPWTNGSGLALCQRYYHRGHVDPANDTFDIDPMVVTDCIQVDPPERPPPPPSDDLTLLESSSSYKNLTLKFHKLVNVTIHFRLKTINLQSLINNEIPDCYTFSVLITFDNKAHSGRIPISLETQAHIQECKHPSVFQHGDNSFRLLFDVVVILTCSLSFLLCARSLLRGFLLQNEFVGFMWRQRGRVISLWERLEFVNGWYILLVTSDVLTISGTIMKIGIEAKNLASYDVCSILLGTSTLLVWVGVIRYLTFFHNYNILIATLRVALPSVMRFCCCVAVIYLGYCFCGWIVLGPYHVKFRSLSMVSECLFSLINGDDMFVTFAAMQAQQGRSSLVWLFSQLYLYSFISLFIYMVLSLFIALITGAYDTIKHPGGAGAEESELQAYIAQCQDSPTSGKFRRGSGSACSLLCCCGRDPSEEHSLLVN
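Kinetic FDSS Ca2+ read in Tet-induced TRPML1-DL cells (ABD Ca8 dye plus quencher, 45-90 min RT loading): baseline, then compound, then 110 s agonist window; EC80 agonist 54-4 at 4uM final added afterwards for a 110 s antagonist window.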
PINK1 expr mod: A Quantitative High throughput Screen to Identify Chemical Modulators of PINK1 Expression; PINK1 immunofluorescence, high-content cytometry, 24 h; Potency, µM (top dose mostly 76.6 µM), for the others: top-dose activation (PINK1 increase), usual class: activators; 410,000 tested, 0.2% active; AID 624263, 2012; active = well fitted activation curve with a large enough effect; inconclusive = small, poorly fitted or top-dose-only effect; inactive = flat fitted curve, though single readings scatter; cell line not stated here;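 further: potency means the concentration at half of the fitted maximal effect; % of control where 0% means no effect; nearly all actives have a fitted effect of over 65% in size; a mitochondrial uncoupler was the plate control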
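Decision-based qHTS: stable cells, 24 h exposure to five compound concentrations, CCCP as control. Fixed cells stained for PINK1 plus nuclear, mitochondrial and cell markers, cytometer read.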
D2 PAM: Beta-Arrestin HTS for Positive Allosteric Modulators of the Human D2 Dopamine Receptor: Potentiators | DiscoveRx D2 beta-arrestin cells, luminescence, 90 min; 100% = 57 uM dopamine signal | potentiation, % (test concentration not listed) | AID 624464, 2012 | 360,000 tested, 0.23% active; active = potentiation of 50% or more; inconclusive = 30% to 50%; inactive = 30% or less;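 further: compound concentration not given in the record; tested on top of an EC20 dose of dopamine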
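D2 cells co-treated with compound plus 50 nM dopamine (EC20) for 90 min at 37 deg C to detect potentiation. Beta-arrestin recruitment was read as enzyme-fragment luminescence after 1 h at ambient temperature. Full response was set by 57 uM dopamine.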
TRPML1 inh: qHTS for Inhibitors of the Human Mucolipin Transient Receptor Potential 1 (TRPML1); activity change, negative = inhibition, % (concentration not given with the values); Mucolipin-1 (Homo sapiens), Q9GZU1; 390,000 tested, 0.02% active; TRPML1-inducible cells, Ca2+ dye fluorescence, FDSS; hits give low values; inhibition of EC80 agonist-evoked calcium signal; in the data active means activity change below about -50%; inconclusive means about -30% to -50%; inactive means above about -30%;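 further: stimulus is agonist 54-4 at its EC80 concentration; on the % scale 0 is the no-effect control and ±100 the full control effect; compound concentration not given in the record; the text of the record puts the active cut at -80%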
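Tet-induced TRPML1-DL cells loaded with Ca8 no-wash calcium dye were read kinetically on FDSS. Compound addition was followed by EC80 agonist 54-4 (4 uM final); inhibition was read over 110 s.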
The depositor's hits bear a star; u = inconclusive; x = not tested or not shown; [ ] = another dose, or the depositor's remark.

SMILES	Six1-Eya2 blk	D2 ag	TRPML1 ag	PINK1 expr mod	D2 PAM	TRPML1 inh
COc1ccc(C(CNC(=O)c2oc3ccc(F)cc3c2C)N2CCCCC2)cc1 (stereo unspecified)	-10	-3.9	-0.4	19%	-48	-9
O=C1NCCCC1C(=O)N/N=C/c1cccc([N+](=O)[O-])c1 (stereo unspecified)	1	0.8	1.1	-0.9%	-1	4
Cc1ccc(-n2c(=O)c3c(C)c(C(=O)N(C)C)sc3n(CC(=O)N(C)c3ccccc3)c2=O)cc1C	x	x	0.5	0.9%	x	-8
CSc1ccc(S(=O)(=O)NC(C)c2ccccc2)cc1 (stereo unspecified)	6	1.8	0.9	-2.5%	3	-7
CCOC(=O)c1nn(-c2ccc(C)cc2)cc1O	7	-5.2	5.6	0.9%	-2	33
CC(C)(C)OC(=O)C[C@@H]1C/C=C\C[C@H](CC(=O)N[C@H](CO)Cc2ccccc2)C(=O)N[C@@H](Cc2ccccc2)COC1=O	8	7.1	0.0	3.4%	9	-11
COc1cc(OC)c(/C=N/NC(=O)c2ccc(Cn3nc([N+](=O)[O-])cc3C)cc2)c(OC)c1	-4	3.5	0.9	0.0%	0	1
CCCCN(C(=O)CSc1nnc(-c2ccco2)o1)c1c(N)n(Cc2ccccc2)c(=O)[nH]c1=O	-4	-2.9	0.8	-1.2%	-11	2
CCC(C)(C)C1CCC2(CC1)NC(=O)N(CC(=O)N1CCN(C(=O)c3ccco3)CC1)C2=O (stereo unspecified)	7	-1.1	0.5	4.6%	3	-11
COc1ccccc1-c1cn(C(C)(C)C)nc1C	9	-2.8	0.4	6.1%	-1	-7
NNC(=O)c1oc2nc(-c3ccccc3)cc(-c3ccccc3)c2c1N	0	-0.2	-1.1	1.0%	-1	20
O=C1c2ccccc2C(Nc2ccc(F)c(Cl)c2)N1c1ccccn1 (stereo unspecified)	-3	2.9	0.4	1.7%	-3	-2
Fc1ccc(C(c2nnnn2Cc2cccs2)N2CCN(C3CCCCC3)CC2)cc1 (stereo unspecified)	-4	-3.4	0.8	0.8%	-22	6
NC1=C([N+](=O)[O-])C(c2ccccc2)C2=C(CCCC2=O)O1 (stereo unspecified)	-4	-5.3	1.5	1.2%	-5	1
O=C(Nc1ccc2c(c1)OCCO2)c1cnccn1	0	-2.8	0.0	1.2%[38.3 µM]	-10	7
CC1(C)CC(C2N3CC4(C)CN2CC(C)(C3)C4=O)CCO1 (stereo unspecified)	2	-1.6	-0.3	11%[38.3 µM]	-4	-5
COc1ccc(OC)c(N(C)S(=O)(=O)c2ccc3c(c2)NC(=O)CC(=O)N3)c1	x	x	-0.3	1.4%	x	6
Oc1ccc(/C=N/n2c(C3CCCCC3)n[nH]c2=S)c(O)c1	-20	12	x	1.0%	-7	x
CCOC(=O)c1c(-c2cccs2)csc1NC(C)=O	11	-1.4	3.4	1.2%	-24	11
FC(F)(F)c1cc(-c2ccco2)nc2ncnn12	3	-5.9	-0.2	0.9%	-7	22

Record cards (already shown). Screens in order: Six1-Eya2 blk	D2 ag	TRPML1 ag	PINK1 expr mod	D2 PAM	TRPML1 inh
Results for Fc1ccc(C(c2nnnn2Cc2cccs2)N2CCN(C3CCCCC3)CC2)cc1 (stereo unspecified) → -4	-3.4	0.8	0.8%	-22	6
Results for FC(F)(F)c1cc(-c2ccco2)nc2ncnn12 → 3	-5.9	-0.2	0.9%	-7	22

Next part.
SMILES	Six1-Eya2 blk	D2 ag	TRPML1 ag	PINK1 expr mod	D2 PAM	TRPML1 inh
Nc1ncnc(Nc2cccc(Cl)c2Cl)n1	7	-1.6	0.6	0.9%	-2	-2
CCOc1ccc(NC(=O)c2ncn(-c3ccccc3)n2)cc1	x	x	-1.0	-0.6%	x	15
Cc1ccc(S(=O)(=O)N(C)c2ccc(C(=O)Nc3cccc(C)n3)cc2)cc1	-13	2.3	0.1	1.3%	-10	18
CC(C)(C)c1ccc(C(=O)NCC(=O)N2CCC3(CC2)NCCc2[nH]cnc23)cc1	-1	-1.8	-0.6	0.7%	-4	-4
COc1ccc(S(=O)(=O)NCC(c2ccc(C)cc2)N2CCN(C)CC2)cc1OC (stereo unspecified)	5	-2.9	-0.2	0.6%	-38	0
COc1ccc(S(=O)(=O)N2CCCCC2)cc1NC(=O)[C@@H]1CCCN1C(=O)c1cccs1	4	1.6	2.2	0.5%	-20	27
CCN(C(=O)Nc1cn(CC(C)C)c(=O)c2ccccc12)c1cc(C)ccc1C	x	x	0.9	-4.6%	x	16
COc1ccc(C(=O)NCC(c2cccnc2)N2CCN(c3ccc(F)cc3)CC2)cc1 (stereo unspecified)	x	x	1.2	1.6%	x	43
Cc1ccc(NC(=O)CSc2nc(=O)n(CCN3CCOCC3)c3c2CCCC3)cc1	-2	-5.5	-0.5	-1.0%	-3	-1
COc1ccc(CCN2C(=O)CCC2(C)C(=O)NCc2cccnc2)cc1OC (stereo unspecified)	-5	-0.8	0.1	-1.4%[38.3 µM]	-6	-20
CCOC(=O)n1c(=O)n(C)c2ccc(Cl)cc21	-2	1.5	-0.7	-1.9%	-1	-3
Cc1ncoc1C(=O)Nc1ncc([N+](=O)[O-])s1	-20	-5.7	0.1	2.0%	-16	1
CC(C)c1ccc(/C=N/NC(=O)CN(c2cccc(Cl)c2Cl)S(C)(=O)=O)cc1	2	-1.0	2.8	-3.2%	10	25
CCc1ccc2[nH]c(=O)c(CN(CCN(CC)CC)C(=O)NC3CCCCC3)cc2c1	-4	-2.9	-1.3	2.3%	-38	-2
O=C(O/N=C1/CCCc2occc21)c1ccc(F)cc1	-1	1.0	1.0	0.7%	-3	-7
O=C(/C=C/c1cccs1)c1cc(F)ccc1OC(=O)N1CCOCC1	0	-1.3	-1.0	2.1%	-10	5
CC(C)(SC(=S)N1CCCCCC1)C(=O)O	10	-3.9	-0.5	0.7%	-8	-2
Cc1ccc(C)c(CSc2cn(CCNC(=O)c3ccccc3F)c3ccccc23)c1	x	x	1.0	0.8%	x	6
O=C(Nc1ccccc1)c1ccccc1OCc1ccc(S(=O)(=O)N2CCOCC2)cc1	3	-7.4	-0.7	8.7%	-2	16
Cc1c(Br)c([N+](=O)[O-])nn1CC(=O)Nc1c(C)n(C)n(-c2ccccc2)c1=O	1	-5.3	0.6	0.9%	-4	-14

Brought forward from above: 5 entries; new compounds follow.
SMILES	Six1-Eya2 blk	D2 ag	TRPML1 ag	PINK1 expr mod	D2 PAM	TRPML1 inh
O=C(/C=C/c1cccs1)c1cc(F)ccc1OC(=O)N1CCOCC1	0	-1.3	-1.0	2.1%	-10	5
CC(C)(SC(=S)N1CCCCCC1)C(=O)O	10	-3.9	-0.5	0.7%	-8	-2
Cc1ccc(C)c(CSc2cn(CCNC(=O)c3ccccc3F)c3ccccc23)c1	x	x	1.0	0.8%	x	6
O=C(Nc1ccccc1)c1ccccc1OCc1ccc(S(=O)(=O)N2CCOCC2)cc1	3	-7.4	-0.7	8.7%	-2	16
Cc1c(Br)c([N+](=O)[O-])nn1CC(=O)Nc1c(C)n(C)n(-c2ccccc2)c1=O	1	-5.3	0.6	0.9%	-4	-14
Cc1ccc(CNC(=O)c2cc(COc3c(F)cccc3F)on2)s1	8	1.3	1.9	3.4%	1	7
O=C(Nc1nc2n(n1)C(c1ccc(F)cc1)C=C(c1ccccc1)N2)c1ccco1 (stereo unspecified)	x	x	0.2	-0.7%	x	6
COc1cc([N+](=O)[O-])ccc1NC(=O)Nc1ccc(C(=O)N2CCCC2)cc1	0	-1.3	2.0	5.6%	4	59
O=C(COC(=O)/C=C/c1ccccc1[N+](=O)[O-])NC1CC1	9	-3.6	-0.9	-0.3%	-8	3
CCOC(=O)c1c(-c2ccc(N(C)C)cc2)oc2c1C(OC)CC2 (stereo unspecified)	7	x	-0.9	0.2%	x	x
O=C(COC(=O)CCC(=O)c1ccc(F)cc1)NCc1ccc(Cl)cc1	3	-4.0	2.2	-1.9%	-4	18
O=C(NCc1ccccc1)c1ccc(N2CCC3(CC2)CC(c2ccc(Cl)cc2)=NO3)c([N+](=O)[O-])c1	-29	-2.3	-0.5	1.7%	-9	-4
Brc1ccc(-c2nnc3sc(CNC4CCCC4)cn23)cc1	5	-7.9	-0.1	0.1%	-2	-5
C[C@@H]1CN([C@@H](C)CO)C(=O)CCCn2nncc2CO[C@@H]1CN(C)C(=O)Nc1ccc(-c2cccs2)cc1	-1	-2.3	x	2.3%	x	x
O=C(CSc1nc2ccccc2[nH]1)N1CCN(C(=O)c2ccco2)CC1	-4	-0.7	-1.1	2.6%	-8	-6
CCOC(=O)Cn1c(=O)oc2cc(S(=O)(=O)NCc3cccs3)ccc21	-1	-0.7	-0.8	-0.2%	-5	0
CC(=O)Nc1ccc(CN2C(=O)C(C)(C)ON=C2c2ccc(C(F)(F)F)cc2)cc1	7	5.0	-0.5	1.1%	-6	x
COc1ccccc1N1CCN(C(=O)c2cn(-c3ccccc3)nc2-c2cccnc2)CC1	-11	-2.3	-0.5	5.5%[38.3 µM]	-11	8
COc1ccc(/C=C/C(=O)Nc2ccccc2)cc1OC	-3	-3.3	0.6	-0.1%	-6	-2
Cc1ccc(NC(=O)C(=O)c2c[nH]c3ccccc23)cc1	6	4.9	x	0.7%	-17	x
CC(C)NC(=O)c1ccc2c(c1)nnn2C	3	-3.7	-0.3	1.5%	7	-4
COc1ccc2c(c1)CCCN2C(N)=Nc1ccc(Cl)cc1	-9	-4.3	4.1	1.0%	-9	2
Cc1cc(NS(=O)(=O)c2ccc(NC(=O)CSc3nc4ncc(Br)cc4[nH]3)cc2)nc(C)n1	u	-6.2	-0.5	-0.2%	-13	3

Compound activity: PubChem, National Center for Advancing Translational Sciences (NCATS)
